Screening data: PubChem BioAssay, several laboratories
E coli growth = blocks Escherichia coli growth. OD600, 23 h; active compounds read low. OD600 absorbance (test concentration not listed). 330,000 compounds, 0.21% hits. AID 1053175;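 active means OD600 absorbance below the run mean of sample wells minus 3.6 SD, in any replicate, cut at about 0.56 in these data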;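 further: stock transfer was 300 nL into about 60 µL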
MLL AF4-AF9 inh = MLL-AF4/AF9 protein interaction inhibition; inhibition, % at 10 µM; AlphaScreen, biotin-AF4 peptide binding to FLAG-AF9; 350,000 compounds, 0.47% hits; P42568;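 active means every replicate reaching a set inhibition limit, whatever the replicate mean, cut at about 25% in these data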;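 further: 0% = plate neutral control median and 100% = total signal loss; the record names both 10 and 1 µM as test concentration; the first replicate is given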
Ecoli rRNA inh = inhibitors of bacterial rRNA selective over humanized ribosomes; E. coli WT GFP vs humanized-ribosome RFP mutants, fluorescence, 24 h; active compounds read low; DMSO median 0, no signal -100; GFP signal change (wild-type ribosome), % (concentration not given with the values); 350,000 compounds, 1.6% hits;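 active means significant combined selectivity score with lowered wild-type GFP, culture density cut under 30%, mutant RFP and density less affected; inactive means any of these conditions unmet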; further: one replicate is shown; some compounds called inactive have numbers as strong as hits
ALR H2O2 inh = human ALR oxidase inhibition via reduced H2O2 | P55789 | purified ALR, DTT oxidation, H2O2 HRP-luminol luminescence | inhibition, % (concentration not given with the values) | 290,000 compounds, 3.8% hits;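 active means mean and each replicate at 75% or more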;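 further: stock transfer was 7.5 nL into about 7.5 µL; 0% = neutral wells and 100% = wells with inactivated enzyme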
Target sequence (P55789 whole entry, looked up): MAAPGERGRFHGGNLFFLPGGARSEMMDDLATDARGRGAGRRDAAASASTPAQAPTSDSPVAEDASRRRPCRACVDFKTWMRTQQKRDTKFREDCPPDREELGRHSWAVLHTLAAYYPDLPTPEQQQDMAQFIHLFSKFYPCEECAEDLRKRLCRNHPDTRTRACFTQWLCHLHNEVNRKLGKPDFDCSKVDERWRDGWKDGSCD
FGF22 binding = shifts melting point of recombinant human FGF22; Q9HCT0; recombinant FGF22 thermal shift, SYPRO orange fluorescence; percent of sucrose octasulfate shift, DMSO zero; calls only at 9.99 µM; 340,000 compounds, 1.5% hits; AID 651658;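 active means melting point raised past a set limit in the mean and every replicate; three in four hits are not shown here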
Target sequence (Q9HCT0 whole entry, looked up): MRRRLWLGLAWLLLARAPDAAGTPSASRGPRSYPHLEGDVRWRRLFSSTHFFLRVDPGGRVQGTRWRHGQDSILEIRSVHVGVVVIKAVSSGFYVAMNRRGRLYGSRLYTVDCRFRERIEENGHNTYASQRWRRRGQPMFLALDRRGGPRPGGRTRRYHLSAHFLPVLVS
HNF4A DNA FP = change in binding of human HNF4 alpha to DNA. P41235. 360,000 compounds, 0.3% hits. HNF4a-FITC DNA binding, fluorescence polarization, 1 h. activity change, % at 10 µM. AID 1224865; in the data active means activity change above about 30%, passing the limit was not always enough;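 further: controls were the assay level and a saturating level of protein; the project sought stronger binding though the title names inhibitors; some compounds called inactive have numbers as strong as hits; positive values seem to mean higher polarization but the record does not say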
Target sequence (P41235 whole entry, looked up): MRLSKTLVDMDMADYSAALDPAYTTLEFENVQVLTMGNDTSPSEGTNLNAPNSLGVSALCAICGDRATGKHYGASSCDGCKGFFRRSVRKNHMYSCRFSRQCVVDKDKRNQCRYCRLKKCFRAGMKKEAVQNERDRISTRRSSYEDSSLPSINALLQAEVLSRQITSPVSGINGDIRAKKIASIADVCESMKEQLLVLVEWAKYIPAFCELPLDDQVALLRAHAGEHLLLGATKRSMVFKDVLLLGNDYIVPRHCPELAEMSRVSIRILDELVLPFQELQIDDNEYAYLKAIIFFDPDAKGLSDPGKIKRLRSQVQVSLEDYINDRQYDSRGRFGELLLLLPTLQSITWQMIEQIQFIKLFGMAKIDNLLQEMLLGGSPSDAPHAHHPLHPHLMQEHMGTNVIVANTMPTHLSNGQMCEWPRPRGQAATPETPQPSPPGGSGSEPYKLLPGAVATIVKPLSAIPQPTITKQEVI
Vif A3G = inhibitors of Vif binding to APOBEC3G peptide, primary screen, biochemical, TR-FRET, GST-Vif 1-94, biotin-A3G peptide, dose response retest (AID 1117319). TR-FRET GST-Vif / biotin-A3G peptide binding; higher % means a stronger effect; test concentration not given here; strong numbers were not always called active. inhibition, %; hits with a dose series show IC50 in µM. 260,000 compounds, 0.57% hits;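 active means above the screen mean plus three standard deviations and confirmed in dose response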;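 further: Vif residues 1-94 fused to GST binding biotinylated APOBEC3G peptide 110-148; 0% = full assay without inhibitor and 100% = GST in place of GST-Vif; retest series ran down from 100 µM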
Ecoli rRNA inh OD600 = recorded beside Ecoli rRNA inh, whose call it bears; OD600 change, %; measured here: OD600 growth;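 optical density of the mix in the first replicate; 0 = DMSO median and -100 = no signal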
Ecoli rRNA inh RFP = also measured in Ecoli rRNA inh; calls as there; RFP signal change, %; measured here: RFP humanized mutant strains;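 first replicate; 0 = DMSO median and -100 = no signal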
Starred values were filed as active, the others as inactive. A portion of the library; count on the stated rates, not on these rows.

CCN(CC)C(=O)C1CCN(Cc2ccc(Br)cc2)CC1 was read as E coli growth 0.7, ALR H2O2 inh -24, HNF4A DNA FP 6.4 and Vif A3G -2%.
For O=C(NCc1ccccn1)C(=O)NCC1OCCN1S(=O)(=O)c1ccc(F)cc1 (centres undefined) the results were E coli growth 0.68, MLL AF4-AF9 inh 0.7, Ecoli rRNA inh 7, ALR H2O2 inh -2, FGF22 binding inactive, HNF4A DNA FP 4.3, Vif A3G 3%, Ecoli rRNA inh OD600 -1 and Ecoli rRNA inh RFP -0.5.
`C[C@H]1CN([C@@H](C)CO)C(=O)c2cccc(NC(=O)Nc3cccc4ccccc34)c2O[C@H]1CN(C)S(=O)(=O)c1cccs1` gave MLL AF4-AF9 inh 1.0, Ecoli rRNA inh -4, FGF22 binding inactive, Ecoli rRNA inh OD600 -4 and Ecoli rRNA inh RFP -0.7.
Screening O=C(CC1(O)C(=O)Nc2cc(Cl)cc(Cl)c21)c1ccncc1 (centres undefined) returned E coli growth 0.66, ALR H2O2 inh -75, HNF4A DNA FP -2.0 and Vif A3G 2%.
For O=C(Nc1ccc(F)cc1)c1cccnc1Oc1ccccc1 the results were E coli growth 0.69, MLL AF4-AF9 inh -0.3, Ecoli rRNA inh 0, ALR H2O2 inh 10, FGF22 binding inactive, HNF4A DNA FP 3.4, Vif A3G -7%, Ecoli rRNA inh OD600 9 and Ecoli rRNA inh RFP 4.7.
For COc1ccc(C(=O)NC2CCN(C(=S)Nc3cccc(C)c3)CC2)cc1 the results were E coli growth 0.67, MLL AF4-AF9 inh 2.8, Ecoli rRNA inh 4, ALR H2O2 inh -2, FGF22 binding inactive, HNF4A DNA FP -0.3, Vif A3G 3%, Ecoli rRNA inh OD600 1 and Ecoli rRNA inh RFP 3.5.
Cc1csc(C(C#N)C(=O)c2ccncc2)n1 (centres undefined) was read as E coli growth 0.69, ALR H2O2 inh 9, HNF4A DNA FP -1.3 and Vif A3G 30%.
For COc1ccc(C(=O)Nc2cccc(OC)c2)cc1 the results were E coli growth 0.64, MLL AF4-AF9 inh 1.4, Ecoli rRNA inh -4, ALR H2O2 inh -39, FGF22 binding inactive, HNF4A DNA FP 6.0, Vif A3G 2%, Ecoli rRNA inh OD600 12 and Ecoli rRNA inh RFP -4.5.
For Cc1ccc(S(=O)(=O)Nc2nc3ccccc3nc2NCC2CCCO2)cc1C (centres undefined) the results were E coli growth 0.71, MLL AF4-AF9 inh -6.3, Ecoli rRNA inh -10, ALR H2O2 inh 48, FGF22 binding inactive, HNF4A DNA FP -0.4, Vif A3G 6%, Ecoli rRNA inh OD600 -16 and Ecoli rRNA inh RFP 4.6.
Cn1c(=NC(=O)CS(=O)(=O)c2ccccc2)sc2ccccc21 was read as E coli growth 0.68, MLL AF4-AF9 inh -0.8, Ecoli rRNA inh 8, FGF22 binding inactive, HNF4A DNA FP 2.9, Vif A3G 0%, Ecoli rRNA inh OD600 5 and Ecoli rRNA inh RFP -0.1.

Fetched by compound from the entries so far (two):
For Cc1ccc(S(=O)(=O)Nc2nc3ccccc3nc2NCC2CCCO2)cc1C (centres undefined) the results were E coli growth 0.71, MLL AF4-AF9 inh -6.3, Ecoli rRNA inh -10, ALR H2O2 inh 48, FGF22 binding inactive, HNF4A DNA FP -0.4, Vif A3G 6%, Ecoli rRNA inh OD600 -16 and Ecoli rRNA inh RFP 4.6.
For COc1ccc(C(=O)NC2CCN(C(=S)Nc3cccc(C)c3)CC2)cc1 the results were E coli growth 0.67, MLL AF4-AF9 inh 2.8, Ecoli rRNA inh 4, ALR H2O2 inh -2, FGF22 binding inactive, HNF4A DNA FP -0.3, Vif A3G 3%, Ecoli rRNA inh OD600 1 and Ecoli rRNA inh RFP 3.5.

Further records follow.
`C=CCNC(=O)NC(=O)CN1C(=O)NC(c2ccccc2)(c2ccccc2)C1=O` gave E coli growth 0.67, MLL AF4-AF9 inh -3.0, Ecoli rRNA inh -7, ALR H2O2 inh -5, FGF22 binding inactive, HNF4A DNA FP -1.9, Vif A3G 5%, Ecoli rRNA inh OD600 -8 and Ecoli rRNA inh RFP 0.7.
For CC(C)NC(=O)N(C)C[C@@H]1Oc2ccc(NC(=O)c3ccncc3)cc2CC(=O)N([C@@H](C)CO)C[C@H]1C the results were MLL AF4-AF9 inh -2.1, Ecoli rRNA inh 0, FGF22 binding inactive, Ecoli rRNA inh OD600 12 and Ecoli rRNA inh RFP -0.4.
Screening CCc1ccc(NC(=O)CN2C(=O)C(=O)N(Cc3ccccc3)C2=O)cc1 returned E coli growth 0.74, MLL AF4-AF9 inh -3.5, Ecoli rRNA inh 9, ALR H2O2 inh -1, FGF22 binding inactive, Vif A3G 1%, Ecoli rRNA inh OD600 9 and Ecoli rRNA inh RFP -4.4.
Screening O=C(CSc1ncnc2c1oc1ccccc12)NCC1CCCO1 (centres undefined) returned E coli growth 0.68, ALR H2O2 inh -7 and HNF4A DNA FP -3.0.
Screening C[C@@H]1CN([C@@H](C)CO)C(=O)c2cc(NC(=O)C3CCCCC3)ccc2O[C@H]1CN(C)S(=O)(=O)c1ccc(Cl)cc1 returned MLL AF4-AF9 inh -0.5, Ecoli rRNA inh 0, FGF22 binding inactive, Ecoli rRNA inh OD600 -16 and Ecoli rRNA inh RFP -4.3.
CCN(CC(=O)Nc1ccc(OC)cc1)C(=O)c1cc(-c2cccs2)nn1-c1ccccc1 was read as E coli growth 0.72, MLL AF4-AF9 inh -3.1, Ecoli rRNA inh 1, ALR H2O2 inh -11, FGF22 binding inactive, HNF4A DNA FP 1.5, Vif A3G -9%, Ecoli rRNA inh OD600 -1 and Ecoli rRNA inh RFP -0.1.
CCC(C)c1ccccc1N1CC(C(=O)N2CCN(S(=O)(=O)c3cccc([N+](=O)[O-])c3)CC2)CC1=O (centres undefined) was read as E coli growth 0.67, MLL AF4-AF9 inh 2.7, Ecoli rRNA inh 9, FGF22 binding inactive, HNF4A DNA FP 6.1, Vif A3G 8%, Ecoli rRNA inh OD600 3 and Ecoli rRNA inh RFP 2.0.
`CC1(Cc2ccc(Cl)cc2)C(=O)Nc2c(Cl)ccc(Cl)c21` (centres undefined) gave MLL AF4-AF9 inh 5.4, Ecoli rRNA inh -31, FGF22 binding inactive, HNF4A DNA FP 0.0, Ecoli rRNA inh OD600 -31 and Ecoli rRNA inh RFP -7.2.
`O=C(NCc1ccccn1)C(=O)NCC1OCCN1C(=O)c1ccc(Cl)cc1` (centres undefined) gave E coli growth 0.72, MLL AF4-AF9 inh -0.9, Ecoli rRNA inh 3, FGF22 binding inactive, HNF4A DNA FP 1.5, Vif A3G 1%, Ecoli rRNA inh OD600 5 and Ecoli rRNA inh RFP 0.7.
Screening O=C(Nn1c(-c2ccncc2)nc2ccccc2c1=O)c1ccc([N+](=O)[O-])cc1Cl returned E coli growth 0.63, MLL AF4-AF9 inh -1.9, Ecoli rRNA inh 18, ALR H2O2 inh 6, FGF22 binding inactive, HNF4A DNA FP 1.2, Vif A3G 4%, Ecoli rRNA inh OD600 22 and Ecoli rRNA inh RFP 3.0.
Screening CCN(CC)C(=O)Cn1c(=O)n(CCCCCC(=O)Nc2ccccc2)c(=O)c2sccc21 returned E coli growth 0.67, MLL AF4-AF9 inh 1.4, Ecoli rRNA inh -10, ALR H2O2 inh -1, FGF22 binding inactive, HNF4A DNA FP 2.7, Vif A3G -8%, Ecoli rRNA inh OD600 -5 and Ecoli rRNA inh RFP -7.1.
For O=C1CSC(c2ccccc2)N1c1ccc(F)cc1F (centres undefined) the results were E coli growth 0.63, MLL AF4-AF9 inh -0.1, Ecoli rRNA inh 8, ALR H2O2 inh -8, HNF4A DNA FP 4.3, Vif A3G -4%, Ecoli rRNA inh OD600 3 and Ecoli rRNA inh RFP 2.9.
`Cn1nnnc1SCC(=O)Nc1ccc(C(=O)N2CCN(Cc3ccccc3F)CC2)cc1` gave E coli growth 0.69, MLL AF4-AF9 inh 1.1, Ecoli rRNA inh -2, FGF22 binding inactive, HNF4A DNA FP -4.4, Ecoli rRNA inh OD600 2 and Ecoli rRNA inh RFP 1.2.
Screening COC(C/C=C/C(=O)[C@@H](C)OCc1ccccc1)OC returned MLL AF4-AF9 inh -5.6, Ecoli rRNA inh 3, ALR H2O2 inh 56, FGF22 binding inactive, HNF4A DNA FP 2.5, Ecoli rRNA inh OD600 15 and Ecoli rRNA inh RFP -2.6.
Screening O=C(c1cc(-c2ccc(Cl)cc2)on1)N1CCOCC1 returned E coli growth 0.64, Ecoli rRNA inh 3, ALR H2O2 inh -2, HNF4A DNA FP 3.0, Vif A3G 2%, Ecoli rRNA inh OD600 6 and Ecoli rRNA inh RFP -2.3.
Screening Cc1ccccc1SCc1noc(C(=O)NC(C)C)c1C(=O)O returned E coli growth 0.67, MLL AF4-AF9 inh -0.7, Ecoli rRNA inh -1, ALR H2O2 inh 29, FGF22 binding inactive, HNF4A DNA FP -0.8, Vif A3G 71%, Ecoli rRNA inh OD600 -5 and Ecoli rRNA inh RFP 2.6.
For O=C(CCN1C(=O)C2C3CCC(C3)C2C1=O)OCC(=O)c1ccccc1 (centres undefined) the results were E coli growth 0.68, MLL AF4-AF9 inh -1.7, Ecoli rRNA inh 19, ALR H2O2 inh -10, FGF22 binding inactive, HNF4A DNA FP -3.9, Ecoli rRNA inh OD600 16 and Ecoli rRNA inh RFP 1.9.
Screening CCOc1ccccc1OCC(=O)Nc1cccc(S(=O)(=O)N2CCCCCC2)c1 returned E coli growth 0.67, MLL AF4-AF9 inh 0.3, Ecoli rRNA inh -9, ALR H2O2 inh 4, FGF22 binding inactive, HNF4A DNA FP -3.4, Vif A3G 0%, Ecoli rRNA inh OD600 -25 and Ecoli rRNA inh RFP 7.2.
Screening COCC#Cc1ccc2c(c1)O[C@@H](CN(C)Cc1cncnc1)[C@H](C)CN([C@H](C)CO)S2(=O)=O returned MLL AF4-AF9 inh 7.5, Ecoli rRNA inh -2, FGF22 binding inactive, Ecoli rRNA inh OD600 -3 and Ecoli rRNA inh RFP 1.6.
`C[C@H](NC(=O)c1ccccc1)C(=O)N1CCC2(CC1)NCCc1[nH]cnc12` gave E coli growth 0.67, MLL AF4-AF9 inh 2.8, Ecoli rRNA inh -3, ALR H2O2 inh -4, FGF22 binding inactive, HNF4A DNA FP -5.7, Ecoli rRNA inh OD600 2 and Ecoli rRNA inh RFP -1.4.
CCOC(=O)CN1C(=O)N[C@@H](c2cccc(C(F)(F)F)c2)[C@@H](C(=O)OC)[C@H]1C was read as MLL AF4-AF9 inh 0.7, Ecoli rRNA inh 9, ALR H2O2 inh -5, FGF22 binding inactive, HNF4A DNA FP 2.9, Ecoli rRNA inh OD600 9 and Ecoli rRNA inh RFP 3.6.
`COc1ccc(S(=O)(=O)N(C)C[C@@H]2OCCCC[C@H](C)Oc3ccc(NC(=O)CCC(F)(F)F)cc3C(=O)N([C@@H](C)CO)C[C@H]2C)cc1` gave MLL AF4-AF9 inh -1.5, Ecoli rRNA inh -2, FGF22 binding inactive, Ecoli rRNA inh OD600 -14 and Ecoli rRNA inh RFP 2.0.
Screening O=C(CC(O)c1ccncc1)c1ccccc1O (centres undefined) returned E coli growth 0.67, MLL AF4-AF9 inh 3.1, Ecoli rRNA inh 1, FGF22 binding inactive, HNF4A DNA FP 0.6, Vif A3G -8%, Ecoli rRNA inh OD600 5 and Ecoli rRNA inh RFP 1.1.
`C[C@@H]1CN([C@H](C)CO)C(=O)c2cccc(NC(=O)c3ccc(-c4nccs4)cc3)c2O[C@H]1CN(C)C(=O)Nc1ccc2c(c1)OCO2` gave MLL AF4-AF9 inh 0.8, Ecoli rRNA inh -2, FGF22 binding inactive, Ecoli rRNA inh OD600 8 and Ecoli rRNA inh RFP -2.5.
